Sa ugtP lethal = kills S. aureus RN4220 lacking UgtP | 330,000 tested, 0.54% active | S. aureus RN4220 ugtP deletion, OD600 growth, 16 h; some inactives read as strong as hits | growth inhibition, % (no concentration beside the values);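 active means z-score under -3 and OD600 up to 0.15 on both plates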;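 further: plate controls were untreated wells for no effect and antibiotic for full effect; wells of about 80 µL received 100 nL stock; the first replicate is given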
BJeLR viability = BJeLR cell viability loss | BJeLR (HRASV12) viability, CellTiter-Glo ATP luminescence, 48 h; reference of the scale not given here | inhibition, % (test concentration not listed) | 300,000 tested, 0.17% active | AID 1554;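 active means replicate mean above 50%; inconclusive means above 50% but judged a plate artefact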;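 further: 50 nL library stock added to about 25 µL; numbers are from one replicate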
Mtb hypoxia inh = inhibitors of hypoxia-regulated fluorescent reporter in Mycobacterium tuberculosis; M. tuberculosis hypoxia-regulated fluorescent reporter, fluorescence; fluorescence inhibition, % (test concentration not listed); 300,000 tested, 0.1% active;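 active means 35 to 45% if threefold the growth effect, above 45% if 1.5-fold the growth effect; inactive means the rest, general growth blockers included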;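 further: wells of about 50 µL received 100 nL stock; 0% = vehicle wells and 100% = reference inhibitor wells; whole bacteria with a GFP reporter of the hypoxia response; strong numbers were not always called active; many hits fall short of the cut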
Autofluor counter = flagged as autofluorescent in microsphere protease counterscreen | compound autofluorescence counterscreen, microsphere flow cytometry; active compounds read high | 360,000 tested, 3.1% active | fluorescence intensity (test concentration not listed) | AID 624483;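 active means at least 3 SD above the mean of all compounds, about 16000 in these data; inconclusive means too few beads counted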;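 further: 100 nL of 1 mM stock went into each well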
PrP UTR inh = suppresses PrP 5' UTR mRNA reporter expression; 340,000 tested, 0.35% active; cell-based PrP 5' UTR mRNA reporter, plate reader; inhibition, % (no concentration beside the values);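 active means every replicate at 50% or more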;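 further: 0 = median of the neutral control wells; tested in H4 reporter cells; numbers are from one replicate; inactives centre near -14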
RN4220 kill = kills Staphylococcus aureus RN4220 | S. aureus RN4220 growth, OD600, 16 h | inhibition, % (concentration not given with the values) | 330,000 tested, 0.33% active | AID 1259311;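 active means z-score of -3 or lower and OD600 up to 0.18 on both plates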;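 further: plate controls were untreated cells for no effect and reference antibiotic for full effect; stock transfer was 100 nL into about 80 µL; one replicate is shown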
Mtb hypoxia inh growth = also measured in Mtb hypoxia inh; calls as there; growth inhibition, %; measured here: M. tuberculosis growth (absorbance);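 0% = vehicle and 100% = reference antibiotic; read after six days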
An asterisk follows results filed as active; ? = inconclusive; / = no result given.

molecule	Sa ugtP lethal	BJeLR viability	Mtb hypoxia inh	Mtb hypoxia inh growth	Autofluor counter	PrP UTR inh	RN4220 kill
COc1ccc(C2C(C(=O)c3ccc(C)o3)=C(O)C(=O)N2Cc2cccnc2)cc1OC (stereo not given)	/	-7	/	/	6193	6	/
Cc1ccc(S(=O)(=O)CCC(=O)OCC(=O)NC(C)c2ccccc2)cc1 (stereo not given)	6	/	-2	1	3617	-25	2.4
CC(C)CC(NC(=O)c1nc[nH]c1C(=O)NCCCCCN)C(=O)OCc1ccccc1 (stereo not given)	-15	/	0	12	/	/	0.0
O=C(NCc1cccnc1)C1CC(c2ccccc2Cl)=NO1 (stereo not given)	4	-2	-5	4	3882	-26	0.5
O=[N+]([O-])c1ccc(C=NNc2nc(N3CCOCC3)nc(N3CCOCC3)n2)cc1	-67	/	16	8	/	/	5.1
CCCn1c(N)c(Sc2ccc(Cl)cc2)c(=O)n(CCC)c1=O	-6	-1	-9	4	3261	-15	11
CCOc1ccc(NC(=O)CCCc2cc(-c3ccc(OCC)cc3)on2)cc1	-1	-5	13	6	3686	-5	8.7
O=C(O)C1CCN(S(=O)(=O)c2cccc3nsnc23)CC1	9	6	5	8	5205	-17	2.5
COCCOC(=O)c1c(C)n(C)c2ccc(OC(=O)C3CC3)cc12	16	-3	17	7	6608	-15	6.9
CC1CN(C(C)CO)C(=O)c2cccc(NC(=O)C3CCCCC3)c2OC1CN(C)C(=O)NC1CCCCC1 (stereo not given)	7	/	5	12	/	/	2.6
O=C(CCN1C(=O)C2C3CCC(C3)C2C1=O)OCC(=O)c1ccc(Br)cc1 (stereo not given)	-1	-10	0	9	6504	-8	3.6
COc1ccc(NC(=O)c2cc(Br)ccc2Cl)c(OC)c1	8	5	1	2	7186	-12	16
Cc1cc(Br)ccc1NCc1ccccn1	-2	-7	6	1	9329	-13	8.8
O=C(NCc1cccnc1)C(=O)NCC1CCCO1 (stereo not given)	5	-5	12	7	2630	-19	2.2
COc1ccc(NC(=O)CN(C2CCCCC2)S(C)(=O)=O)cc1OC	0	-10	/	/	3009	-21	2.8
Cc1cc(C)c2c(=O)c(C#N)coc2c1	-3	0	-1	8	5939	-13	-0.3
CCC1=NN(C(=O)C(=O)Nc2ccc(Br)cc2)C(O)(C(F)(F)F)C1 (stereo not given)	20	2	2	0	4325	-24	5.9
CN(C(=O)COC(=O)C12CC3CC(CC(Cl)(C3)C1)C2)c1ccccc1	-4	/	5	5	3838	-8	-0.6
CC(=NO)C(C)(C)Nc1ccccc1F	-3	/	-5	8	/	/	4.5
CCCCCC1CN(Cc2ccc(OC)cc2)C(=O)C1CC(=O)NCc1ccccc1 (stereo not given)	3	/	5	10	/	/	4.3
CCOc1ccc2[nH]c(C(=O)N/N=C/c3ccccc3OC)cc2c1	/	20	/	/	2845	-24	/
CCN(C[C@H]1N[C@@](C)(C(=O)OC)[C@H]2C(=O)N(C)C(=O)[C@@H]12)S(=O)(=O)c1ccc(OC)cc1	2	/	3	6	3579	-14	-0.8
COC(=O)C1=C(NC(C)=O)CCS1	9	1	14	1	2396	-14	0.6
Cc1nn(-c2ccc(N3CCCCC3)nn2)c(C)c1CCC(=O)Nc1ccccc1F	1	0	3	0	5858	-37	-0.7
CN(C(=O)CCc1nnc(CCCCc2ccccc2)o1)C1CCOCC1	4	2	-13	14	2489	-11	-0.4
Cc1nn(C)c(C)c1CN(C)C(=O)C1CCC(=O)N(C2CCCCCC2)C1 (stereo not given)	4	-6	6	-2	4497	-23	3.5
CCOC(=O)c1c(C)[nH]c(C(=O)CSc2nnc(-c3ccncc3)n2CC)c1C	13	0	2	0	6814	-8	3.6
CCN(CC(=O)Nc1ccc(NC(C)=O)cc1)C(=O)CSc1ncnc2sc(C)c(C)c12	1	5	-8	4	?	3	2.2
CCn1c(=O)c(=O)[nH]c2cc(C(=O)NC(C)c3ccc(S(N)(=O)=O)cc3)ccc21 (stereo not given)	11	-7	-5	2	3704	-23	2.9
COc1cc(NS(=O)(=O)c2ccc(N/C=C\C(=O)c3ccc(OC)c(OC)c3)cc2)nc(OC)n1	/	0	/	/	9053	-26	/
Cc1cc(O)c(C=Nc2ccc(Cl)cn2)c(=O)o1	0	0	/	/	2290	-14	-4.6
CN(CC(=O)Nc1ccccc1C(=O)NC1CC1)Cc1ccco1	0	/	6	1	3843	-46	5.5
CCOc1ccc(-c2nc(-c3ccc(OC)cc3)no2)cc1OCC	7	1	3	3	8113	-6	-0.3
CCC(=O)N1c2ccc(S(=O)(=O)CCC(=O)NCc3cccs3)cc2CC1C (stereo not given)	-9	0	7	10	4276	-24	-3.0
CCCNC(=O)Nc1nnc(C2CC2)s1	-9	-3	17	6	2583	-22	5.9
CCO[C@@H]1OC(C(=O)Nc2ccccc2)=C[C@H](c2ccc(C(F)(F)F)cc2)[C@H]1CCCO	/	-25	/	/	4009	-9	/
Cc1ccc(NC(=O)CN2C(=O)NC(C)(c3ccc(Cl)cc3)C2=O)c(Br)c1 (stereo not given)	-11	-7	-8	4	3901	-8	-0.6
CN(C)C(=O)CCc1nc(-c2ccc(C(C)(C)C)cc2)no1	-1	4	/	/	2874	-38	4.2
COc1ccccc1OCC(=O)NC1CC(C)(C)NC(C)(C)C1	5	-1	7	-2	3065	-9	3.2
Cc1ccc(C(=O)CN(C(=O)c2ccc(Cl)c(Cl)c2)N2C(=O)C3CCCCC3C2=O)cc1C (stereo not given)	12	6	6	11	20975*	-7	-0.8
CC(C)(C)c1ccc(C(=O)Nc2ccc(NC(=O)C(=O)O)cc2)o1	1	-8	5	14	4385	30	9.2
O=C(NNc1nc(-c2ccccc2)c2cc(Br)ccc2n1)c1ccc(S(=O)(=O)N2CCCCC2)cc1	0	-7	12	4	2583	17	-1.2
CC(CN1CCCCC1)OC(=O)c1cc2ccccc2o1 (stereo not given)	-1	-6	5	8	2424	-27	-11
Cc1ccc(CNC(=O)C2CCN(S(=O)(=O)c3ccc4c(c3)CC(C)N4C(=O)C3CCC3)CC2)o1 (stereo not given)	7	-4	1	5	5771	-3	-0.7
CC(=O)N1CCN(c2ccc(NC(=O)c3ccccc3Br)cc2Cl)CC1	-4	-10	/	/	4673	-22	-6.8
CC(C)(C)NC(=O)Cc1ccc(S(=O)(=O)N2CCCC2)s1	-4	-2	4	0	2583	-10	-11
CC1(c2ccccc2)NC(=O)N(CC(=O)Nc2ccc3c(c2)OCO3)C1=O (stereo not given)	6	2	/	/	3258	-13	1.1
CC(=O)Nc1cccc(-c2nc3ccccc3s2)c1C	4	12	1	-12	2356	-6	3.9
O=S(=O)(NCC1CCN(Cc2ccccc2)CC1)c1ccccc1C(F)(F)F	13	1	-8	-1	5202	-25	-0.8
Cc1ccc(N2C(=O)N(CC(=O)Nc3ccc([N+](=O)[O-])cc3)C(=O)C2C)cc1 (stereo not given)	4	3	8	12	6137	-20	-1.7
O=C(c1ccccn1)N1CCN(S(=O)(=O)c2ccccc2)CC1	2	9	12	1	4157	-8	0.2
COc1cc(C(C)=O)ccc1Oc1ncnc2c1cnn2-c1ccc(F)cc1	9	3	10	13	10437	-22	4.9
COc1ccc(NCC(=O)NN=C/C=C/c2ccccc2[N+](=O)[O-])cc1	5	/	-3	-4	/	/	3.0
CC1(C)C2CCC(C2)C1(C)NC(=O)CN1CCN(Cc2ccccc2)CC1 (stereo not given)	4	-7	11	5	2679	-19	5.7
CCN(CC)C(=O)CS(=O)(=O)CC(=O)Nc1cc(OCCOC)c(Cl)cc1Cl	0	2	3	8	4742	-3	2.0
O=C(CN1C(=O)C2CC=CCC2C1=O)Nc1cc(C(F)(F)F)ccc1N1CCCC1 (stereo not given)	2	3	11	5	5252	-3	2.1
CCc1ccccc1N(CC(=O)N/N=C/c1ccc(OC(=O)OC)c(OC)c1)S(C)(=O)=O	/	-3	/	/	2532	-12	/
Cc1cccc(N2NC(=O)/C(=C/c3ccc(-c4ccc(Cl)c(C(=O)O)c4)o3)C2=O)c1	2	-2	9	4	5372	-24	0.3
Nc1nc(-c2ccc(S(=O)(=O)N3CCCCC3)cc2)cs1	-4	/	-3	3	3528	-9	1.5
Cc1c(-c2ccccc2)c(=O)oc2ccc(O)cc12	-3	0	0	-2	4629	-6	-0.2

(further entries)
molecule	Sa ugtP lethal	BJeLR viability	Mtb hypoxia inh	Mtb hypoxia inh growth	Autofluor counter	PrP UTR inh	RN4220 kill
CC(C)(C)C(=O)Nc1ccccc1C(=O)NCc1ccco1	-9	4	4	4	2483	-20	-16
Cc1ccn(-c2cc(O)c(-n3ccc(C)n3)cc2O)n1	4	-3	-3	-1	3204	-14	7.0
CCOc1ccc(CNC(=O)CCC(=O)n2nc(C)c3ccccc32)cc1	-3	-5	5	4	5354	-1	-2.1
O=C(CNC(=O)c1ccc(F)cc1)c1ccc(Cl)cc1	-3	-1	-2	-2	4454	-67	-6.1
Cc1ccc(SCC(c2ccccc2)N2CCN(C)CCC2=O)cc1 (stereo not given)	1	/	2	6	/	/	5.7
Cc1nonc1NC(=O)CSc1nc(CCC2CCCC2)nc2ccccc12	2	2	3	-8	4846	-3	2.4
CC(C)CNC(=O)c1ccccc1NC(=O)c1ccc(CSc2ccccc2)cc1	-14	-1	-5	4	2358	3	-6.4
O=C(O)C1CCCN1S(=O)(=O)c1ccc(Br)s1 (stereo not given) (tested in a mixture with another compound)	2	-1	-4	8	4197	-112	0.9
Cc1nc(N)sc1C(=O)NN=Cc1ccc([N+](=O)[O-])cc1	-1	/	-2	12	/	/	2.0
CC1=NN(C(C)C)C(=O)C1	-5	3	3	5	4190	-23	0.8
COc1cc(C(=O)N2CCN(c3ccccc3O)CC2)ccc1OCC(=O)N1CCOCC1	0	/	6	0	5189	-6	9.1
CCN(CC)C(=O)CCNS(=O)(=O)c1ccc(C)cc1	9	1	11	8	3597	4	4.9
O=C(Nc1ccccc1)Nc1cccc2cccnc12	-9	7	14	18	8609	-132	-1.5
CCN1CCN(C(=O)c2cc3c(s2)-c2c(C)cccc2OC3)CC1	-3	-8	/	/	6227	-50	-4.5
COc1ccccc1-c1coc2cc(OCC(=O)OCc3ccccc3)ccc2c1=O	0	-3	-7	8	2460	-18	0.9
COc1ccc(C=NNC(=O)COc2ccccc2)c(C(=O)O)c1OC	7	/	5	2	/	/	1.4
O=C(CCn1cnnn1)Nc1cccc(F)c1	3	-6	-1	-5	3774	-4	2.1
CCN(CC)S(=O)(=O)c1ccc2c(c1)N(CC(=O)N1CCC(C(N)=O)CC1)C(=O)CO2	13	2	4	-3	4620	-8	5.9
CC1CCCC/C1=N\NC(=S)NCCc1ccccc1 (stereo not given)	/	-7	/	/	4011	-20	/
COc1ccc(C(=O)CSc2ccc(-c3ccccc3)nn2)cc1	-4	3	9	13	6781	-14	10
O=C(O)c1ccc(NN=Cc2cc3cc4c(cc3nc2Cl)OCCO4)cc1	5	/	-3	7	/	/	15
CC1CCCCN1CC(=O)Nc1ccccc1Sc1ccccc1 (stereo not given)	-3	4	4	3	2454	-12	5.6
Cc1nonc1OCCNC(=O)C12CC3CC(CC(C3)C1)C2	-1	-5	15	13	3436	-27	-0.3

An excerpt from above with just Sa ugtP lethal, RN4220 kill and BJeLR viability:
mol	Sa ugtP lethal	RN4220 kill	BJeLR viability
CC(C)(C)c1ccc(C(=O)Nc2ccc(NC(=O)C(=O)O)cc2)o1	1	9.2	-8
O=C(NNc1nc(-c2ccccc2)c2cc(Br)ccc2n1)c1ccc(S(=O)(=O)N2CCCCC2)cc1	0	-1.2	-7
CC(CN1CCCCC1)OC(=O)c1cc2ccccc2o1 (stereo not given)	-1	-11	-6
Cc1ccc(CNC(=O)C2CCN(S(=O)(=O)c3ccc4c(c3)CC(C)N4C(=O)C3CCC3)CC2)o1 (stereo not given)	7	-0.7	-4

Screening results deposited in PubChem BioAssay by several laboratories.
